High-throughput results from PubChem.
KCNQ1 block: inhibitors of human KCNQ1 potassium channel | P51787 | CHO-K1 KCNQ1, FluxOR thallium flux fluorescence; stronger effect = higher value | B-score at 10 µM | hit rate 1.3% among 310,000 | AID 2642;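 active = compounds whose thallium flux B-score, printed positive for inhibition, exceeds three library SD while starting fluorescence stays within three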;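 note: channel opened by potassium depolarization with thallium stimulus after 20 min compound exposure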
Target sequence (P51787 whole entry, looked up): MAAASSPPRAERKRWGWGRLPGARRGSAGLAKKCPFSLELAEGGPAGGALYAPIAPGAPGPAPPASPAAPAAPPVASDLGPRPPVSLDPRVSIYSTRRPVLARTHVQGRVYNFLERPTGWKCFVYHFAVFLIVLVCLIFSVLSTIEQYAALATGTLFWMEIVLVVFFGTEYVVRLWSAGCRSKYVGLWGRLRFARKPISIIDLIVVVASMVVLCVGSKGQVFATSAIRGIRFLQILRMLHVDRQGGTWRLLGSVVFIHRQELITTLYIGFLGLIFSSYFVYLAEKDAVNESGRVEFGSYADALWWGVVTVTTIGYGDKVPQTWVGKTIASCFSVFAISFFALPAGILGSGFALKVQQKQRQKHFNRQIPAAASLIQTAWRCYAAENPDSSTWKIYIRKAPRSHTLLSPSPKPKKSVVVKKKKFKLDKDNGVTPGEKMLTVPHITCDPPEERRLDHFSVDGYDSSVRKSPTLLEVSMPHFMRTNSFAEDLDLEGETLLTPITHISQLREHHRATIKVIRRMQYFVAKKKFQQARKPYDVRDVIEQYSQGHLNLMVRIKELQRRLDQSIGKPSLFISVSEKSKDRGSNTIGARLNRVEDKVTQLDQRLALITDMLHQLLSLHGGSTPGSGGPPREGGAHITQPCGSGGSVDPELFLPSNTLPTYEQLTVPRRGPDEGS
HDAC3 inhib: blocks human histone deacetylase 3; recombinant HDAC3, fluorogenic peptide/trypsin coupled, fluorescence; inhibition, % at 8.3 µM; hit rate 0.15% among 320,000; AID 2718; in the data active = inhibition above about 26%, passing the limit was not always enough
GSK3A inh: human GSK-3 alpha kinase inhibition; P49840; ADP-Glo luminescence, 60 min; inhibition, % at 10 µM; hit rate 0.1% among 320,000; AID 2650;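 in the data active = inhibition above about 50%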;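 note: GST-tagged GSK-3 alpha with peptide substrate and 25 µM ATP; 0% = DMSO neutral wells and 100% = GW8510 positive control wells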
GSK3B inh: blocks human GSK3beta kinase activity. GST-GSK3beta kinase, ADP-Glo luminescence, 60 min; stronger effect = lower value. P49841. hit rate 0.038% among 300,000. activity score (negative = inhibition), % at 10 µM;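 active = more than half of replicate wells score below -50%, meaning over 50% inhibition versus plate controls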;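 note: 0% = median DMSO wells and -100% = median GW8510 positive control wells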
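Test system: GST-fused GSK3beta enzyme, cell-free | Quantity: 1.6 ng GST-GSK3beta enzyme per well | Reagent: 25 µM ATP with peptide substrate | Schedule: 60 min enzyme reaction, room temperature | Signal: Luminescent ADP-Glo measurement of ADP formed | Read-out basis: Score relative to plate controls | Control set: DMSO and 20 µM GW8510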
KCNK3 block: human KCNK3 channel inhibition, primary screen | hit rate 0.84% among 340,000 | B-score at 10 µM | CHO-KCNK3 thallium flux, FluxOR fluorescence; stronger effect = lower value;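 active = B-score under library mean minus 4 SD, starting fluorescence ratio at most library mean plus 5 SD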;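 note: more negative B-score means stronger inhibition of thallium flux through KCNK3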
DYRK1A inh: inhibitors of rat Dyrk1A kinase | hit rate 0.43% among 310,000 | ADP-Glo luminescence, NFATc1 peptide | Q63470 | AID 504441 | inhibition, % at 12.5 µM; in the data active = inhibition above about 50%;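 note: plate controls were vehicle with enzyme for no effect and no enzyme for full effect; many of its hits are not listed in these tables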
The depositor's hits bear a star; i = inactive; nt = no result given; & = joins results of further samples. Some of the compounds tested; the hit share may differ from the screen's.

SMILES	KCNQ1 block	HDAC3 inhib	GSK3A inh	GSK3B inh	KCNK3 block	DYRK1A inh
CN(C)CCCN1c2ccccc2CCc2ccccc21	i	8.8	-0.3	-0.1	i	6.7
Cc1nn(-c2ccccc2)c(Cl)c1/C=N/NC(=O)c1ccncc1	i	-0.5	4.8	4.9	i	-4.4
O=C(CSc1nccn1-c1ncc(C(F)(F)F)cc1Cl)c1ccc(Cl)cc1	i	-0.3	-18.8	-0.1	i	-4.8
COc1ccc(-n2c(O)c(/C=C3\C=Nc4ccccc43)c(=O)[nH]c2=O)cc1	i	nt	nt	-2.7	i	nt
CN[C@H]1CC[C@@H](c2ccc(Cl)c(Cl)c2)c2ccccc21	i	-5.9&3.5	2.5&6.5	2.2&2.0	i	-3.9&1.2
O=C(NCc1cn(-c2ccccc2)nc1-c1ccccc1)c1cccc([N+](=O)[O-])c1	i	-2.5	-1.7	-4.5	i	-2.4
COc1cccc(CN(C)CC(=O)Nc2cccc(C(F)(F)F)c2)c1OC	i	5.1	-1.6	1.3	i	nt
C#Cc1cccc(C(=O)N2CCCC(Nc3cccc(F)c3)C2)c1 (stereo not given)	i	-0.1	0.9	-2.1	i	-2.9
C[C@@H]1C[C@H]2[C@@H]3CCC4=CC(=O)C=C[C@]4(C)[C@@]3(F)[C@@H](O)C[C@]2(C)[C@@]1(O)C(=O)CO	i	3.2&0.1	2.5&-0.1	-5.8	i	-7.9
CCOC(=O)c1c(C)oc2ccc(O)cc12	i	-0.6	2.3	-24.5	i	21.8

Another view of part of the listing above.
| mol | KCNQ1 block | HDAC3 inhib | GSK3A inh | GSK3B inh | KCNK3 block | DYRK1A inh |
| --- | --- | --- | --- | --- | --- | --- |
| CN(C)CCCN1c2ccccc2CCc2ccccc21 | i | 8.8 | -0.3 | -0.1 | i | 6.7 |
| Cc1nn(-c2ccccc2)c(Cl)c1/C=N/NC(=O)c1ccncc1 | i | -0.5 | 4.8 | 4.9 | i | -4.4 |
| O=C(CSc1nccn1-c1ncc(C(F)(F)F)cc1Cl)c1ccc(Cl)cc1 | i | -0.3 | -18.8 | -0.1 | i | -4.8 |
| COc1ccc(-n2c(O)c(/C=C3\C=Nc4ccccc43)c(=O)[nH]c2=O)cc1 | i | nt | nt | -2.7 | i | nt |
| CN[C@H]1CC[C@@H](c2ccc(Cl)c(Cl)c2)c2ccccc21 | i | -5.9&3.5 | 2.5&6.5 | 2.2&2.0 | i | -3.9&1.2 |
| O=C(NCc1cn(-c2ccccc2)nc1-c1ccccc1)c1cccc([N+](=O)[O-])c1 | i | -2.5 | -1.7 | -4.5 | i | -2.4 |
| COc1cccc(CN(C)CC(=O)Nc2cccc(C(F)(F)F)c2)c1OC | i | 5.1 | -1.6 | 1.3 | i | nt |
| C#Cc1cccc(C(=O)N2CCCC(Nc3cccc(F)c3)C2)c1 (stereo not given) | i | -0.1 | 0.9 | -2.1 | i | -2.9 |
